Bioassay records: PubChem BioAssay, National Center for Advancing Translational Sciences (NCATS)
RE007 growth inh = qHTS Assay for Inhibitors of the HIV-1 protein Vpr; S. pombe RE007 Vpr strain, BacTiter-Glo ATP luminescence, 24 h; control for the full effect not named in the record; Potency, µM (doses to about 92.2 µM), for the others: at the highest dose activity change, negative = less growth; 360,000 tested, 0.21% active; AID 651644, 2012; active = well fitted falling curve with a large enough effect; inconclusive = small, poorly fitted or top-dose-only effect; inactive = no such curve, though single readings can be large or run the other way;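 further: on the % scale 0 is the no-effect control and ±100 the full control effect; nearly all actives have a fitted effect of over 50% in size; the assay follows cell death caused by Vpr and the record does not say whether a fall means rescue or toxicity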
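Fission yeast RE007 carrying one integrated HIV-1 vpr copy, seeded at OD 0.01 in PMG+AL medium with 23 nL pinned compound. Grown 24 h at 30 degrees; viability read by BacTiter-Glo luminescence after 5 min.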
Cruzain Triton = qHTS Assay for Promiscuous and Specific Inhibitors of Cruzain (with detergent) | 200,000 tested, 0.43% active | AID 1478, 2009 | Potency, µM, for inactives: max response, negative = inhibition, usual class: inhibitors | purified cruzain, Z-FR-AMC fluorescence, 0.01% Triton; active means well fitted curve in the direction sought with a large enough effect; inconclusive means small, poorly fitted or top-dose-only effect, or another doubt; inactive means no such curve, though single readings can be large; an effect the other way counts as inactive or inconclusive;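 further: plate controls were neutral wells for no effect and buffer without enzyme for full effect; nearly all actives have a fitted effect of over 40% in size; top concentration of the series not given in the record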
Target sequence (P25779 123-467 limits assumed): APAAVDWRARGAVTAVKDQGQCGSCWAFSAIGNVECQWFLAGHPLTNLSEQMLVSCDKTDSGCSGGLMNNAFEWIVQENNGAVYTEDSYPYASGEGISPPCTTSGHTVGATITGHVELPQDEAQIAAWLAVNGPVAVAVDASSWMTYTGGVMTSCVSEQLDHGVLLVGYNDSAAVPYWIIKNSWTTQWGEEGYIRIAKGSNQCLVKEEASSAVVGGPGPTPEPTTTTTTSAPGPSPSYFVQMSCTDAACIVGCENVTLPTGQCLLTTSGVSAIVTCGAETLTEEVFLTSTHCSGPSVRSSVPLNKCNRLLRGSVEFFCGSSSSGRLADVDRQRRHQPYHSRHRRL
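Cruzain (1.5 nM) preincubated 15 min at RT with compound in 100 mM sodium acetate pH 5.5, 5 mM DTT, 0.01% Triton X-100. Reaction started with 2 uM Z-FR-AMC; AMC fluorescence (ex 360/em 450 nm) change over 60 s gave rate.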
StopGo reporter = High Throughput Screening for Foot and Mouth Disease Virus Antivirals | human cells with a luciferase reporter of 2A StopGo recoding; control for the full effect not named in the record | Potency, µM (series often up to 57.9 µM), without a hit: top-dose signal change, negative = less light | 410,000 tested, 1.2% active; active = well fitted falling curve with a large enough effect; inconclusive = small, poorly fitted or top-dose-only effect; inactive = no such curve, though single readings can be large or run the other way; tested in HEK293T cells; further: on the % scale 0 is the no-effect control and ±100 the full control effect; nearly all actives have a fitted effect of over 45% in size; luciferase light after 4 h
SARS PLP yeast = qHTS of Yeast-based Assay for SARS-CoV PLP. S. cerevisiae expressing SARS-CoV PLpro, growth rescue; control for the full effect not named in the record. Potency, µM (highest dose often 32.9 µM), inactives show at the top dose activity, positive = growth rescue. 330,000 tested, 0.19% active; further: 0% is about no effect; nearly all actives have a fitted effect of over 55% in size; growth read by luminescence after 48 h
Cruzain inh noDet = qHTS Assay for Promiscuous and Specific Inhibitors of Cruzain (without detergent) | Cruzipain (Trypanosoma cruzi), P25779 | purified cruzain, Z-FR-AMC fluorescence, no detergent | Potency, µM, for inactives: max response, negative = inhibition, hits mostly inhibitors | 200,000 tested, 2.3% active; active means well fitted curve in the direction sought with a large enough effect; inconclusive means small, poorly fitted or top-dose-only effect, or another doubt; inactive means no such curve, though single readings can be large; an effect the other way counts as inactive or inconclusive;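 further: plate controls were enzyme without inhibitor for no effect and buffer without enzyme for full effect; nearly all actives have a fitted effect of over 40% in size; top concentration of the series not given in the record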
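Detergent-free condition (0.00005% Triton X-100) in acetate buffer pH 5.5 with DTT. 1.5 nM enzyme and compound were pre-mixed 15 min, then 2 uM Z-FR-AMC substrate added; reaction progress from fluorescence change between first and third reads (60 s).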
Lassa entry inh = qHTS for Inhibitors of binding or entry into cells for Lassa Virus. Lassa virus pseudotype entry inhibition, cell reporter; control for the full effect not named in the record. Potency, µM (doses to about 37.9 µM), for inactives: at the highest dose activity change, negative = inhibition, actives largely listed as inhibitors. 300,000 tested, 1.2% active. AID 540256, 2011; active means well fitted inhibition curve with a large enough effect; inconclusive means small, poorly fitted or top-dose-only effect, or effect the other way; inactive means flat fitted curve, though single readings scatter; tested in HEK293 cells; further: on the % scale 0 is the no-effect control and ±100 the full control effect; nearly all actives have a fitted effect of over 50% in size; luciferase read-out
Marburg entry inh = qHTS for inhibitors of binding or entry into cells for Marburg Virus | Marburg virus pseudotyped entry inhibition, cell reporter; control for the full effect not named in the record; about a third of the inactives were read at about 46 µM | Potency, µM (top dose mostly 37.8 µM), for the others: top-dose activity change, negative = inhibition, actives largely listed as inhibitors | 300,000 tested, 1.8% active | AID 540276, 2011; active = well fitted inhibition curve with a large enough effect; inconclusive = small, poorly fitted or top-dose-only effect, or effect the other way; inactive = flat fitted curve, though single readings scatter; tested in HEK293 cells; about a fifth of its hits are not listed in these tables; further: on the % scale 0 is the no-effect control and ±100 the full control effect; luciferase read-out
NS1 function inh = qHTS Assay for Inhibitors of Influenza NS1 Protein Function. Potency, µM (top dose mostly 46.1 µM), for the others: at the highest dose activity, positive = more growth. AID 2326, 2010. 270,000 tested, 0.4% active. S. cerevisiae slowed by influenza A NS1, growth recovery by OD600; further: actives are rising curves; nearly all actives have a fitted effect of over 50% in size
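OD600 was taken as the measure of yeast growth restored by compound in an NS1-expressing S. cerevisiae strain. Cells had been washed out of glucose medium and diluted 1:100 into galactose -URA medium, pH 6.0.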
* marks the source's active call; other numbers are inactive results; ? = inconclusive; · = no result given; [ ] = dose if it differs, or a comment. Unless noted, the call rests on the fitted dose curve; in most records, active means well fitted rising curve with a large enough effect; inconclusive means small, poorly fitted or top-dose-only effect; inactive means no such curve, though single readings can be large or run the other way. Potency means the concentration at half of the fitted maximal effect. Outcome played no part in choosing rows. About 4.7% of those tested had a hit in this group.

Every second line gives: RE007 growth inh	Cruzain Triton	StopGo reporter	SARS PLP yeast	Cruzain inh noDet	Lassa entry inh	Marburg entry inh	NS1 function inh
Fc1ccc(CNCCc2ccccc2)cc1
→ -9%	·	4%	-2%	·	27%[46.1 µM]	-27%[46.1 µM]	·
CNC(=O)CCc1nc(-c2ccc(C(C)(C)C)cc2)no1
→ 8%	-2.9%	6%	-12%	1%	?	0.89µM*	-8%
CCCN1C(=O)c2ccc(C(=O)NC3CCCCC3)cc2C1=O
→ 6%	-2.9%	0%	-2%	-1%	4%	-2%	-2%
Cc1noc(C)c1COc1cccc(C(=O)OC(C)C(=O)Nc2ccc3c(c2)OCO3)c1 (stereo unspecified)
→ -6%	-4.9%	?	1%	-1%	?	?	-3%
O=C(Oc1cc(Cl)cc(Cl)c1)c1cnc2n(c1=O)CCS2
→ -22%	·	-11%	-1%	·	-17%[46.1 µM]	?	-6%
CC(C)(C)c1ccc(C2(C)NC(=O)N(CC(=O)c3ccc[nH]3)C2=O)cc1 (stereo unspecified)
→ 12%	-4.2%	-6%	-3%	-4%	7%	5%	13%
CCN(c1ccccc1)S(=O)(=O)c1ccc(OC)c(NC(=O)C2CC(=O)N(Cc3ccccc3)C2)c1 (stereo unspecified)
→ -14%	·	-19%	-1%	·	·	·	-67%
Cc1cc(Cl)ccc1NC(=S)N1CCOCC1
→ 12%	-1.3%	-3%	12%	-7%	20%	-1%	8%
CC(=O)C(Sc1ccc2nnc(-c3ccc(F)cc3)n2n1)C(C)=O
→ -16%	1.4%	-23%	0%	7%	·	·	-7%
O=C(CN1CCN(C(=O)C2CCCO2)CC1)Nc1c(Cl)cccc1Cl (stereo unspecified)
→ -1%	·	-19%	-10%	·	?	4%	8%
O=C(Nc1nc2ccccc2s1)C1CC(=O)N(c2ccc(Br)cc2)C1 (stereo unspecified)
→ 0%	-13%	-15%	-32%	3%	1%	-11%	17%
Clc1ccc(-c2nn3cnnc3s2)c(Cl)c1
→ -26%	-7.1%	-17%	-6%	10%	-21%	-16%	-5%
O=C(NNC(=S)NCc1ccccc1)c1cccc([N+](=O)[O-])c1
→ -13%	·	0%	10%	·	·	?	-3%
O=C(COC(=O)c1ccc([N+](=O)[O-])s1)NCc1ccc(F)cc1
→ 3%	-5.8%	1%	-54%	-10%	?	6%	-48%
COc1ccc(OC)c(NC(=O)C2CCCNC2=O)c1 (stereo unspecified)
→ -12%	-0.8%	-12%	5%	-1%	-1%	10%	2%
CC(CCc1ccccc1)NC(=O)COC(=O)c1ccc(NC(N)=O)cc1 (stereo unspecified)
→ 4%	·	-23%	1%	·	·	·	3%
Cc1cc(C=NCCCO)c(C)n1-c1cc(Cl)ccc1Cl
→ -1%	·	-10%	-3%	·	-19%	-2%[46.1 µM]	·
Cc1cc(-c2ccccc2)nc(SCc2ccc(C(=O)O)o2)n1
→ 2%	1.0%	15%	7%	-4%	13%	0%	-10%
Nc1nc(-c2ccccc2)ns1
→ 2%	·	19%	·	·	3%	0%	·
COCC(C)n1c(COc2ccccc2F)nnc1SCC(=O)Nc1oc(C)c2c(C)n[nH]c(=O)c12 (stereo unspecified)
→ -10%	·	-1%	5%	·	-22%	23%	·
CC1CCCCC1NC(=O)c1ccc(-n2cncn2)c([N+](=O)[O-])c1 (stereo unspecified)
→ 3%	·	-3%	2%	·	0%	2%	·
CCN(CC)CCCN(Cc1cc2cc3c(cc2[nH]c1=O)OCO3)C(=S)NCc1ccco1
→ 11%	·	-5%	0%	·	15%	?	3%
CCOc1ccccc1CNC(=O)c1cc2c(=O)n(Cc3ccco3)ccc2nc1C
→ ·	-5.8%	-17%	·	?	-11%[46.1 µM]	·	·
COC(=O)c1cc2c(-c3ccccc3)cc3ccccn3c-2c1C(=O)OC
→ -9%	-7.1%	?	3%	?	?	?	23%
COc1cccc(-c2nc3ccc(C(=O)N4CCCC(O)C4)cc3o2)c1 (stereo unspecified)
→ 15%	·	3%	1%	·	?	-24%	-5%
COc1ccc(N2CCN(C(=O)c3ccc(CS(=O)Cc4ccc(Cl)cc4)o3)CC2)cc1 (stereo unspecified)
→ -3%	·	-16%	·	·	11%[46.1 µM]	?	-5%
COc1ccc(CNC(=O)c2cccc3c2C(=O)N(Cc2cccnc2)C3)cc1
→ 2%	0.9%	12%	0%	8%	?	2%	-15%
COc1cc(C(=O)CSc2nncn2C)cc(OC)c1OC
→ -1%	1.7%	-7%	13%	3%	?	2%	3%
CC1=C(C(=O)Nc2ccccc2)C(c2cccc(Cl)c2)n2nc(SCC(=O)c3ccc(C)cc3)nc2N1 (stereo unspecified)
→ ·	1.6%	9%	·	4%	10%[46.1 µM]	·	·
CC(/C=C/c1ccc2c(c1)OCO2)=N/NC(=O)COc1ccc(C)cc1
→ 8%	-3.9%	-2%	-16%	-1%	?	-2%	-4%
CCCCNC(=O)c1cc2c(=O)n(CC)c3ccccc3c2s1
→ -4%	·	9%	0%	·	?	-11%	3%
COc1ccc(-n2c3c(cc(C(=O)Nc4ccc(C)cc4)c2=O)C(=O)CCC3)cc1
→ 10%	·	-25%	·	·	?	28%[46.1 µM]	·
CC(=O)c1ccc(NC(=O)CN2C(=O)/C(=C/C=C/c3ccccc3)SC2=S)cc1
→ 4%	-8.1%	1%	1%	10µM*	-3%	5%	16%
CCOC(=O)CNC(=O)CSc1nnc(-c2ccc(OC)cc2)n1CC
→ 17%	-0.8%	-6%	8%	16%	7%	-2%	-3%
COC(=O)c1c(NC(=O)c2nc3nc(C)cc(C(F)F)n3n2)sc2c1CCC2
→ 5%	-3.7%	16%	9%	?	-3%	-14%	15%
CCOc1ccc(-c2cc(C(=O)NCc3ccccc3Cl)c3ccccc3n2)cc1
→ ·	-0.3%	-4%	·	-2%	-5%[46.1 µM]	·	·
Cc1ccsc1/C=N\NC(=O)Cn1nnc2ccccc21
→ -5%	-4.7%	18%	8%	0%	?	-28%	6%
COC(=O)CCCCCCCCC(O)CN(C)C (stereo unspecified)
→ 5%	·	-6%	-1%	·	·	7%	-6%
COc1ccc(C2C(C(=O)Nc3ccc(Cl)cc3)=C(C)Nc3nc(SCc4cccc(C)c4)nn32)cc1OC (stereo unspecified)
→ ·	-0.8%	12%	·	-2%	-2%[46.1 µM]	5%[46.1 µM]	·
CN(C(=O)COC(=O)C1CSC2(C)CCC(=O)N12)c1ccccc1 (stereo unspecified)
→ 8%	·	-8%	-2%	·	4%	21%	·
Cc1ccc(-n2c3c(cc(C(=O)N4CCN(C)CC4)c2=O)C(=O)CC(C)(C)C3)cc1
→ 17%	0.5%	8%	5%	3%	-1%	28%	-2%
Cc1cc(N)n(-c2ccccc2C)n1
→ 21%	·	-4%	-5%	·	10%	-1%[46.1 µM]	16%
Cc1csc2c(N3CCN(C(=O)c4ccc(C(C)(C)C)cc4)CC3)ncnc12
→ -2%	·	-21%	-2%	·	·	·	2%
CCC1CCCCN1C(=O)c1c[nH]c2ccc(S(=O)(=O)Nc3cccc(OC)c3)cc2c1=O (stereo unspecified)
→ ·	-2.7%	2%	·	-7%	29%[46.1 µM]	·	·
CN(C)c1ccc(C(CNC(=O)c2ccco2)N2CCCC2)cc1 (stereo unspecified)
→ -1%	·	13%	-1%	·	·	·	6%
CC(=O)c1sc(NC(=O)COc2ccc(C(C)C)c(C)c2)nc1C
→ 37%	·	-27%	-5%	·	4%	23%[46.1 µM]	3%
CC(=O)Nc1ccccc1C(=O)OCC(=O)Nc1ncccn1
→ 24%	·	2%	-4%	·	2%	0%[46.1 µM]	12%
O=C(CSC(=O)c1ccccc1)Nc1ccccc1F
→ -17%	·	-10%	-2%	·	30%[46.1 µM]	-5%[46.1 µM]	·
Cc1cc(C)c(NC(=O)C2CCN(C(=O)N3CCOc4ccccc43)CC2)c(C)c1
→ ·	-3.9%	?	·	-4%	-7%[46.1 µM]	·	·
O=C(Nc1cccc([N+](=O)[O-])c1)N1CCN(c2ccccc2)CC1
→ -9%	·	-14%	-2%	·	-13%[46.1 µM]	-7%[46.1 µM]	-2%
Cc1cc2oc(=O)cc(CN3CCCCC3)c2cc1C(C)C
→ -13%	-2.0%	-9%	-1%	1%	-10%	?	-17%
COc1ccc(NC(=O)CN(C)S(=O)(=O)c2ccc(Br)s2)cc1OC
→ -4%	·	5%	-2%	·	0%[46.1 µM]	10%[46.1 µM]	12%
COc1ccc(CCNC(=O)Cn2c(=O)n(-c3ccc(C)c(C)c3)c(=O)c3c(C)c(C)sc32)cc1OC
→ ·	-1.2%	-24%	·	?	3%[46.1 µM]	12%[46.1 µM]	·
O=C(CN1C(=O)COc2ccc(S(=O)(=O)N3CCCC3)cc21)N1CCN(c2ccc(F)cc2)CC1
→ ·	-3.7%	-7%	·	?	-4%[46.1 µM]	-2%[46.1 µM]	·
Cc1cc(NS(=O)(=O)c2ccc(NC(=S)NC(=O)c3ccc(Cl)cc3Cl)cc2)no1
→ -2%	-16%	20%	·	-12%	-1%	11%	3%
COc1ccc(NC(=O)C2=C(C)NC(=O)NC2c2ccccc2[N+](=O)[O-])cc1 (stereo unspecified)
→ -13%	·	31%[activator]	0%	·	-3%	1%[46.1 µM]	2%
Cc1ccc(Oc2nc3ccccn3c(=O)c2/C=C(\C#N)c2nc3ccccc3s2)c(C)c1
→ ·	-5.0%	?	·	5%	1%[46.1 µM]	?	·
CCOc1cc(CN2CCCCC2)ccc1OC
→ -13%	0.1%	12%	11%	-2%	0%	-3%	-2%
